# Menin MLL FP FL: qHTS Assay for Inhibitors Targeting the Menin-MLL Interaction in MLL Related Leukemias: Competition With Fluorescein Labeled MLL-derived Peptide; FP activity change, % at 61.4 µM; AID 1766, 2009; 290,000 tested, under 10 active; Fluorescence polarization, fluorescein-MLL peptide displacement from menin; inconclusive = falling polarisation curve, or a change in total fluorescence; inactive = total fluorescence flat and polarisation flat or rising; no compound was filed as active; the % refers to the polarisation; negative = inhibition;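 note: % of control where 0% means no effect; inhibitors lower the polarisation; unlabelled MLL peptide was the positive control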
# Sfp inh: qHTS Assay for Inhibitors of Bacillus subtilis Sfp phosphopantetheinyl transferase (PPTase); Biochemical Sfp PPTase activity, qHTS; 310,000 compounds, 3.5% hits; Potency, µM, without a hit: max response, negative = inhibition, hits mostly inhibitors; 4'-phosphopantetheinyl transferase ffp (Bacillus subtilis), Q9F4F7; active = well fitted inhibition curve with a large enough effect; inconclusive = small, poorly fitted or top-dose-only effect, or another doubt; inactive = no such curve, though single readings can be large or run the other way;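 note: the enzyme is Sfp with the accession as filed and its product quenches rhodamine fluorescence; potency is the fitted concentration of half-maximal effect; 0% = enzyme reaction without inhibitor and -100% = no enzyme wells; top concentration of the series not given in the record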
#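 Fluorescence-quenching assay with 15 nM Sfp, 5 uM rhodamine-CoA and 12.5 uM BHQ-2-labelled ybbR peptide in pH 7.6 Hepes/MgCl2 buffer. Enzyme was pre-incubated with compound for 15 min at room temperature. Rate was taken from the 30-min fluorescence change (525/598 nm).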
# gsp ag: qHTS for Agonist of gsp, the Etiologic Mutation Responsible for Fibrous Dysplasia/McCune-Albright Syndrome: qHTS. gsp mutant cells, cAMP HTRF, 30 min; control for the full effect not named in the record. Potency, µM (highest dose often 76.9 µM), without a hit: at the top dose activation (cAMP increase), most hits filed as activators. 340,000 compounds, 0.13% hits; active = well fitted activation curve with a large enough effect; inconclusive = small, poorly fitted or top-dose-only effect, or another doubt; inactive = no such curve, though single readings can be large or run the other way; cell line not stated here;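 note: phosphodiesterase inhibitor Ro 20-1724 added with compounds to block cAMP breakdown; potency is the fitted concentration of half-maximal effect; nearly all actives have a fitted effect of over 60% in size; about a fifth of the inactives were tested at one dose only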
#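 Cells stably selected in G418 were plated at 2000/well, grown 16-24 hr, then given compounds in DMSO with the PDE inhibitor […] (300 uM solution added) for 30 min at 37C; cAMP was read by HTRF.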
# gsp antagonist: qHTS for Antagonists of gsp, the Etiologic Mutation Responsible for Fibrous Dysplasia/McCune-Albright Syndrome: qHTS; 340,000 compounds, 0.4% hits; AID 624288, 2012; gsp-mutant cells, cAMP HTRF, 30 min; control for the full effect not named in the record; Potency, µM (top dose mostly 76.9 µM), for the others: at the highest dose activity change, negative = inhibition, most hits filed as inhibitors; active = falling curve of any shape with a large fitted effect; inconclusive = falling curve, mostly with a smaller effect; inactive = flat or rising curve; cell line not stated here;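 note: intracellular cAMP measured with PDE inhibitor Ro 20-1724 present during compound exposure; potency is the fitted concentration of half-maximal effect; % is set by controls: 0 for no effect and ±100 for the full control effect; nearly all actives have a fitted effect of over 65% in size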
#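 Cells in G418 medium, seeded 16-24 h, 37C; buffer exchange to DPBS + 1 mM CaCl2, 0.5 mM MgCl2, 0.05% BSA; cpds in DMSO + […] (300 uM stock), 30 min 37C; HTRF cAMP detection.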
# TRPV1 PAM: HTS Assay for Compounds that Act as Potentiators of the Vanilloid Receptor 1. Transient receptor potential cation channel subfamily V member 1 (Homo sapiens), Q8NER1. TRPV1-expressing cells, Fluo-8 calcium influx, capsaicin EC20 potentiation; host cell line not named in the record; control for the full effect not named in the record. potentiation, % at 8.33 µM. 320,000 compounds, 0.02% hits. AID 540277, 2011; active means potentiation above 80%; inconclusive means 30% to 80%; inactive means below 30%; note: 0% is about no effect
# Target sequence (Q8NER1 whole entry, looked up): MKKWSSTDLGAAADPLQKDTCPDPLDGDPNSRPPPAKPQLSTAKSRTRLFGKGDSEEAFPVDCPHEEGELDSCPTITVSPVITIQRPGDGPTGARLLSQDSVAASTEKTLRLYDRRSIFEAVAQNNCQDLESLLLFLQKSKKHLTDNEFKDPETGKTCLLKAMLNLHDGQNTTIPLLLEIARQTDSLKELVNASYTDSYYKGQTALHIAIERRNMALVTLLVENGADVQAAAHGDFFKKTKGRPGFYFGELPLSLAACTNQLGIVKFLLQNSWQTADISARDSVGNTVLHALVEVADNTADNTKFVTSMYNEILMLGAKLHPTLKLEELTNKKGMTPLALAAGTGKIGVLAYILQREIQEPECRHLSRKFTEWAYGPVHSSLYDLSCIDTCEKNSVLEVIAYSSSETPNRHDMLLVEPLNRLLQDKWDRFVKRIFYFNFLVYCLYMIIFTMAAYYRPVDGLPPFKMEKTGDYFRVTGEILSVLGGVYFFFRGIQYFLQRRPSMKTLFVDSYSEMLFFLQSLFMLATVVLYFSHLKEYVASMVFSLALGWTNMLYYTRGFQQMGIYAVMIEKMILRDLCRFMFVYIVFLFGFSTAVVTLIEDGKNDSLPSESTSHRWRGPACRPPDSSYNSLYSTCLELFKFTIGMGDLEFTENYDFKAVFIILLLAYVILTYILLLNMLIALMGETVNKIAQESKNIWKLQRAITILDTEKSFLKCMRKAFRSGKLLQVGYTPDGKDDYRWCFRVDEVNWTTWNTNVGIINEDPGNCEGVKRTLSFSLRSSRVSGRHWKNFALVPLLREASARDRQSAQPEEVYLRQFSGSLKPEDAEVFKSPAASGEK
#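 TRPV1-expressing cells were cultured overnight at 35.5C and loaded with Fluo-8 calcium dye for 40 to 90 min at room temperature. After a 10 s baseline, compound was added and calcium influx was read kinetically for 3 min (ex 480/em 520 nm).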
# ClpP mod: qHTS Assay for Activators of ClpP | AID 651965, 2013 | 340,000 compounds, 1.9% hits | purified B. subtilis ClpP, FRET peptide cleavage, 20 min | ATP-dependent Clp protease proteolytic subunit (Bacillus subtilis (strain 168)), P80244 | Potency, µM (series often up to 57.5 µM), for the others: top-dose activity change, negative = active; active = well fitted falling curve with a large enough effect; inconclusive = small, poorly fitted or top-dose-only effect; inactive = no such curve, though single readings can be large or run the other way; note: potency is the fitted concentration of half-maximal effect; the source files actives as falling curves though it sought activators and does not explain the sign; nearly all actives have a fitted effect of over 65% in size; many hits overshoot -100%
# Target sequence (P80244 whole entry, looked up): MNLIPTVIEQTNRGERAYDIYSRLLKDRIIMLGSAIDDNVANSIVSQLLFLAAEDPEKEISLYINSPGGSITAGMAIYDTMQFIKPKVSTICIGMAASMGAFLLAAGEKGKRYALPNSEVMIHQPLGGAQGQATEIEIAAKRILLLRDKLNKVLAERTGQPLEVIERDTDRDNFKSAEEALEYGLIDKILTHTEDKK
#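 FRET quenching reversal measured ClpP activation: 10 microg/mL B. subtilis ClpP at pH 8 with the FRET-FV decapeptide, read at 430 nm after 320 nm excitation. The 20-min minus 0-min signal was scaled between DMSO/no-enzyme wells and ADEP (5.8 microM final).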
# TRPML1 blocker: qHTS for Inhibitors of the Human Mucolipin Transient Receptor Potential 1 (TRPML1); 390,000 compounds, 0.02% hits; TRPML1-inducible cells, Ca2+ dye fluorescence, FDSS; active compounds read low; inhibition of EC80 agonist-evoked calcium signal; Mucolipin-1 (Homo sapiens), Q9GZU1; AID 624415, 2012; activity change, negative = inhibition, % (test concentration not listed); in the data active means activity change below about -50%; inconclusive means about -30% to -50%; inactive means above about -30%;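 note: stimulus is agonist 54-4 at its EC80 concentration; % is set by controls: 0 for no effect and ±100 for the full control effect; compound concentration not given in the record; the text of the record puts the active cut at -80%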
#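 Tet-induced TRPML1-DL cells loaded with Ca8 no-wash calcium dye were read kinetically on FDSS. Compound addition was followed by EC80 agonist 54-4 (4 uM final); inhibition was read over 110 s.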
# The depositor's hits bear a star; ? = inconclusive; nt = not tested or not shown; & = joins results of further samples; [ ] = dose if it differs, or a comment.
# Screens in order: Menin MLL FP FL	Sfp inh	gsp ag	gsp antagonist	TRPV1 PAM	ClpP mod	TRPML1 blocker
COc1ccc(N=Cc2ccc(-c3ccccc3)o2)cc1
  -0.4	4%	-2%[15.4 µM]	nt	-8	nt	8
Nc1nc(=S)c2ncn(C3CCCC3)c2[nH]1
  -11	13µM*	13%	6%	-15	nt	24
O=C(O)/C=C/c1cccc(OCc2ccccc2)c1
  -2.2	10%	-7%	-9%	-24	nt	?
CCCNC(=O)c1ccc(N2CCC3(CC2)CC(c2ccccc2)=NO3)c(NC(=O)c2cccc(C)c2)c1
  0.7	11%	-22%	-16%	6	4.0%	31
COc1ccc(Cc2[nH]n3c(=O)c(Cl)c(C)nc3c2-c2ccccc2)cc1
  0.7	16%	2%	-11%	19	nt	18
O=C(NCCc1ccccc1)c1ccc(Br)o1
  5.3	22%	nt	2%	-27	1.1%	-1
N/C(Cc1ccc(Cl)cc1)=N\OC(=O)c1ccc2ccccc2c1
  -0.2	5%	-9%	-9%	2	-7.8%	4
COc1ccc(/C=N/n2c(SC)nnc(C(C)(C)C)c2=O)cc1
  3.4	13%	0%	3%	-18	-0.4%	40
O=C(Cc1ccccc1[N+](=O)[O-])NCC1(c2cccc3c2OCO3)OCCO1
  nt	nt	-52%[inhibitor]	-10%	nt	-1.6%	6
COc1cccc2cc(C(=O)N(C)C3CCN(C)CC3)c(=O)oc12
  1.9	2%	?	5%	-14	-6.2%	-21
O=C(CSCC(=O)N1CCN(c2ccccc2)CC1)Nc1nc(-c2ccc(Cl)s2)cs1
  2.9	5%	-2%	?	-4	-1.2%	41
Cc1ccc(S(=O)(=O)NCc2n[nH]c(=S)n2C)cc1
  -1.0	-10%	14%	3%	4	-2.1%	7
OCCCc1nc2ccccc2[nH]1
  -3.7	19%	7%	9%	17	nt	10
COC(=O)C1NN=C(C(=O)c2ccc(Br)cc2)C1c1cccc(Br)c1 (centres undefined)
  3.8	3%	5%	-11%	-3	-1.1%	-5
CN(C)CCCN(C(=O)c1ccc(S(=O)(=O)N2CCCCCC2)cc1)c1nc2c(F)cccc2s1
  nt	-8%	-10%	2%	1	-0.5%	12
COCCOC(=O)C1=C(N)OC2=C(C(=O)CCC2)C1c1cccnc1 (centres undefined)
  -8.3	15%	?	9%	1	-4.4%	-12
CCOC(=O)c1cnc2c(C)cccc2c1Nc1cccc(C(=O)O)c1
  8.2	11%	9%	-18%	1	-1.4%	nt
Cc1ccc(CN2CCSc3ccc(C(=O)NCCCN4CCOCC4)cc32)cc1
  nt	5%	34%	8%	6	3.6%	9
O=C(Cn1nnc(-c2ccc(Cl)cc2)n1)NC1CCN(Cc2ccccc2)CC1
  1.3	6%	-29%	13%	5	1.2%	32
O=S(=O)(Nc1cccc(-c2nnco2)c1)c1ccc(F)cc1F
  0.8	14%	-38%[inhibitor]	-13%	?	-6.5%	-1
COCCCNC(=O)/C(C#N)=c1\s/c(=C\c2ccccc2OC(F)F)c(=O)n1CCCOC
  3.2	4%	3%[15.4 µM]	-1%	18	?	-9
O=C(CSc1nnc(SCc2ccccc2Cl)s1)N/N=C/c1c[nH]c2ccccc12
  2.4	15%	-26%	-7%	12	1.7%	5
CC(C)CC(=O)Nc1ccc(-c2cn3cccnc3n2)cc1
  -1.3	7%	-1%	2%	13	3.4%	21
O=C(CN1C(=O)c2ccccc2C1=O)NCc1ccccn1
  -1.9	17%	27%	17%	5	-7.8%	5
O=C(Nc1ccc(F)cc1)c1cc(S(=O)(=O)N2CCCCC2)cs1
  -4.5	20%	-22%	-10%	2	-2.0%	13
CC(C)(C)NC(=O)CSc1nc(N)c(-c2ccccc2)c(=O)[nH]1
  -5.3	7%	6%[15.4 µM]	0%	19	nt	6
COc1cccc(OCc2cc(C(=O)N(C)Cc3nc4ccccc4[nH]3)no2)c1
  nt	5%	7%	?	5	-5.3%	-5
CCc1ccc(NC(=O)COc2cccc(-n3cnnn3)c2)cc1
  1.2	7%	?	-3%	-9	nt	7
CC(=O)c1ccc(NC(=O)C(Cc2ccccc2)n2cccc2)cc1 (centres undefined)
  -0.4	12%	4%	2%	-6	0.1%	nt
NS(=O)(=O)c1ccc(N/N=C/c2ccccc2Br)cc1
  -0.3	-3%	-4%[15.4 µM]	nt	-2	nt	23
CCC(C)[C@H](NC(=O)[C@H](Cc1ccccc1)n1c(=O)[nH]c2ccccc2c1=O)C(=O)NCC1CCC(C(=O)O)CC1 (some centres undefined)
  -3.4	10%	nt	6%	-3	-11%	nt
Cc1ccc(N=Cc2cc(C)n(C3CCCC3)c2C)cc1
  2.6	2%	5%	-6%	3	-0.1%	-21
COc1ccc(NC2CCCN(C(=O)c3cccc(N(C)C)c3)C2)cc1 (centres undefined)
  3.1	9%	0%	9%	-25	-1.5%	14
CC(C(=O)Nc1ncc([N+](=O)[O-])s1)N1C(=O)c2ccccc2S1(=O)=O (centres undefined)
  nt	nt	-8%	13%	3	-0.8%	11
O=C(O)CC(NC(=O)C(F)(F)F)c1ccc2c(c1)OCO2 (centres undefined)
  -3.5	10%	4%[15.4 µM]	-9%	-4	nt	14
Cc1cccc(N2CCN(C(=O)c3ccnn3C)CC2)c1C
  6.3	-4%	28%	5%	-4	0.9%	8
CSc1cccc(NC(=O)c2ccc(Cl)nc2)c1
  -0.7	10%	-56%[inhibitor]	1%	-28	-9.6%	-12
COc1ccc(C)cc1S(=O)(=O)N(C)CC(N)=O
  0.9	-3%	23%	5%	4	-5.5%	-2
CCCCCN(C(=O)CCC(=O)OCc1cc(C(C)=O)ccc1OC)c1c(N)n(CCCC)c(=O)[nH]c1=O
  nt	nt	-2%[15.4 µM]	-5%	4	nt	13
COc1cc(C)c(S(=O)(=O)NC2CC(C)(C)NC(C)(C)C2)cc1C
  0.4	8%	-9%	11%	4	-2.2%	14
Cc1cc(NC(=O)Cc2cccs2)nn1CC(=O)NCc1ccco1
  3.0	3%	-11%	3%	5	-1.5%	3
Cc1ccc(-c2cc(C3C4C=CCCC4(C)C(=O)N3Cc3ccccc3)ccc2F)cc1 (centres undefined)
  -4.2	-23%	nt	nt	nt	nt	16
COc1cc(NC(=O)CCN2CCN(CCO)CC2)cc(OC)c1
  -2.0	12%	-1%[15.4 µM]	16%	-4	0.0%&-2.7%	-6&2
CCOc1ccc(N2CC(C(=O)Nc3cccc(S(=O)(=O)N4CCCC4)c3)CC2=O)cc1 (centres undefined)
  nt	nt	11%[15.4 µM]	?	26	nt	29
COc1ccccc1N1CCN(C(=O)c2cnn3cccnc23)CC1
  0.5	31%[activator]	nt	nt	-8	nt	nt
Cc1c(N=O)c(-c2ccccc2)n(O)[n+]1[O-]
  nt	nt	0%	nt	nt	-0.6%	8
COC(=O)c1cc(CN2CCN(c3ccccc3C)CC2)ccc1O
  1.5	-11%	?	5%	0	-11%	5
CCCCC(=O)Nc1ccc(C(=O)NNC(=O)c2ccco2)cc1
  5.5	14%	-18%	7%	2	-7.6%	-9
CCOC(=O)c1sc(NC(=O)CSc2nccc(C)n2)c(C#N)c1C
  1.2	2%	-30%[inhibitor]	-5%	16	-9.5%	-21
CC(=O)Nc1nc(C)nc(-c2ccccc2)c1C(C)=O
  -3.0	12%	?	-2%	-5	-0.6%	-4
CC1CCN(c2ccccc2NC(=O)c2ccc(C#N)cc2F)CC1
  1.1	-5%	18%	11%	8	nt	9
CCn1c(SCC(=O)c2ccccc2)nc2c(c1=O)SC(C)C2 (centres undefined)
  2.8	-2%	-16%	-28%	-2	1.2%	3
COCCN1C(=O)c2ccccc2C(C(=O)N2CCN(c3ccccn3)CC2)C1c1ccc(F)cc1 (centres undefined)
  1.7	21%	6%[15.4 µM]	-2%	2	-0.8%	12
Cc1ccc(NC(=O)CSCC(=O)O)c(C)c1
  -1.1	-4%	-1%	5%	2	0.3%	-22
CN(Cc1ccccc1)C(=O)CCn1c(=O)c2cccn2c2cccnc21
  nt	4%	-2%	7%	6	-20%	7
CCc1ccc2nc(N(CCN(C)C)C(=O)c3ccc4ccccc4c3)sc2c1
  0.9	?	5%	11%	1	-2.1%	-12
Cc1cc(Cl)ccc1OC(C)C(=O)NN=C1CCCCCC1 (centres undefined)
  0.7	10%	?	-7%	10	nt	-13
O=C1CCCN1CCC1CCN(C(=S)Nc2ccc(F)cc2)CC1
  -2.2	6%	4%	-1%	0	-2.8%	-11
Cc1nc2ccccn2c1C(=O)N/N=C/c1cc(C)n(-c2ccc(Cl)cc2)c1C
  3.0	-7%	9%	10%	11	-7.9%	13
O=C(NN=C1CCCCCCC1)C(=O)NC1CCCCC1
  -0.7	6%	-54%[inhibitor]	16%	8	-1.4%	3

# Remaining list, next part
# Screens in order: Menin MLL FP FL	Sfp inh	gsp ag	gsp antagonist	TRPV1 PAM	ClpP mod	TRPML1 blocker
O=[n+]1cc(-c2ccc(Cl)cc2)n([O-])c2c1CCCCC2
  nt	19%	-25%	7%	-5	-25%	5
CCOC(=O)C1(Cc2cccc(F)c2)CCN(C(=O)Cn2cnnn2)CC1
  16	1%	-12%	5%	10	2.6%	1
Cc1nn(C)cc1/C=N\NC(=O)c1ccc2c(c1)c(C)c(C)n2Cc1ccccc1
  3.1	-20%	0%	3%	1	-8.8%	-12
O=C(NCC(c1ccco1)N1CCCC1)c1ccc(S(=O)(=O)Nc2ccccc2F)cc1 (centres undefined)
  nt	nt	5%	2%	12	-0.5%	12
